Assay outcomes (PubChem BioAssay)
GLA inh pH 4.5: blocks human alpha-galactosidase A at pH 4.5. P06280. purified enzyme, 4-MU-alpha-Gal fluorescence, pH 4.5. activity change, negative = inhibition, % at 105 µM. 230,000 tested, under 10 active; inconclusive = small, poorly fitted or top-dose-only inhibition, or a rising curve; inactive = flat fitted curve, though single readings scatter; no compound was filed as active;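 note: 0% = full activity with enzyme and -100% = basal without enzyme; dose as in the result columns while the protocol names 77 µM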
Target sequence (P06280 whole entry, looked up): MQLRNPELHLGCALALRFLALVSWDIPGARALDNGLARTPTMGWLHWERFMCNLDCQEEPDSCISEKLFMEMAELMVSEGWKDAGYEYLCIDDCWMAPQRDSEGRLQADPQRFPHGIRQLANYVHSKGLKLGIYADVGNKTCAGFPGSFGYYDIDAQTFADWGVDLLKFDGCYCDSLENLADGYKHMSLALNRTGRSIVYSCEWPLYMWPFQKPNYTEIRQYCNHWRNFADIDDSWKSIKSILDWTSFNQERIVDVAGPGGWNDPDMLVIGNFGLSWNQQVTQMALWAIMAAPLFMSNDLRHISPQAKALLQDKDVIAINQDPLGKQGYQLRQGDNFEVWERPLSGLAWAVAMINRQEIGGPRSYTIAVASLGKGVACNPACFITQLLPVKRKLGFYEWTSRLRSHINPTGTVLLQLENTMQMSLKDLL
Numbers without * were called inactive; ? = inconclusive; & = joins results of further samples.

SMILES	GLA inh pH 4.5
COC(=O)C1=C(C(=O)OC)[C@@H]2N(C)c3ccccc3[C@@]23C[C@@H](CO)N(C(=O)c2ccco2)C3=N1	5
O=C(O)c1cc(O)c(O)c(O)c1	-18
COc1ccc2c(c1)C(=O)[C@@H](OC(=O)NS(=O)(=O)c1ccc(C)cc1)[C@H](c1ccc(OC)c(Br)c1)O2	-8
CN(C)CCn1nnnc1SCC1=C(C(=O)O)N2C(=O)[C@@H](NC(=O)Cc3csc(N)n3)[C@@H]2SC1	5
CCCCCCCCCCCCCCCCO	-4
C[C@@H]1CCC[C@H](C)N1	-8
O=C(O)c1ccc(NS(=O)(=O)c2ccsc2C(=O)O)c(O)c1	-3
CC1(C)O[C@H]2C[C@@H]3[C@H]4CCC5=CC(=O)CC[C@@]5(C)[C@]4(F)[C@@H](O)C[C@@]3(C)[C@@]2(C(=O)CCl)O1	-12
CN(C)C(=O)c1ccc(-c2nc(NCc3cccs3)c3ccccc3n2)cc1	?
Nc1ccccc1C(=O)CC(N)C(=O)O (centres undefined)	2&-2
Nc1ncnc2c1nc(Br)n2C1O[C@H]2COP(=O)(O)O[C@@H]2C1O (some centres undefined)	-3
CN(C)C(=O)c1ccc(-c2nc(N(C)Cc3ccco3)c3ccccc3n2)cc1	6

Part of the list above in order of molecular weight, smallest number first:
SMILES	GLA inh pH 4.5
C[C@@H]1CCC[C@H](C)N1	-8
CCCCCCCCCCCCCCCCO	-4
Nc1ncnc2c1nc(Br)n2C1O[C@H]2COP(=O)(O)O[C@@H]2C1O (some centres undefined)	-3
CN(C)CCn1nnnc1SCC1=C(C(=O)O)N2C(=O)[C@@H](NC(=O)Cc3csc(N)n3)[C@@H]2SC1	5

The results go on.
SMILES	GLA inh pH 4.5
Cc1cccc(CNc2ncnc3ccc(-c4ccccc4C#N)cc23)c1	14
COC(=O)[C@@]1(Cc2ccc(F)cc2)[C@H]2c3cc(C(=O)N(C)C)n(Cc4cccc5ccccc45)c3C[C@H]2CN1C(=O)c1ccccc1	-1
COC(=O)c1ccc(C(NC(=O)OCc2ccccc2)/C(=C/[C@@H](C)C(=O)NC2CCCCC2)c2cccnc2)cc1 (some centres undefined)	-9
CC1(C)C(=O)C(c2ccccc2)=C2CN3C(=O)N(CCc4ccccc4)C(=O)C3(Cc3ccc(C(F)(F)F)cc3)C=C21 (centres undefined)	-2
O=C1CCC=C1C(O)c1ccccc1 (centres undefined)	-4&3
COc1ccccc1CNc1nc(-c2ccccc2CN(C)C)nc2ccccc12	-3
CC(=O)Oc1cc(C(F)(F)F)ccc1C(=O)O	4
CC1OC(OCC2OC(Oc3c(-c4ccc(O)c(O)c4)oc4cc(O)cc(O)c4c3=O)C(O)C(O)C2O)[C@@H](O)C(O)C1O (some centres undefined)	-11
COc1ccc(-c2oc3cc(O[C@@H]4OC(CO)C(O)C(O)C4O)c(OC)c(O)c3c(=O)c2OC)cc1O (some centres undefined)	5
COc1ccccc1-c1nc(NCc2ccccc2)c2ccccc2n1	-6
COc1c2c(cc3occ(-c4ccc5c(c4)OCO5)c(=O)c13)OC(C)(C)C=C2	3
NC(N)=NCCCCN=C(N)N	-4&4&-3&7

By substructure, the compounds so far containing bromine
SMILES	GLA inh pH 4.5
COc1ccc2c(c1)C(=O)[C@@H](OC(=O)NS(=O)(=O)c1ccc(C)cc1)[C@H](c1ccc(OC)c(Br)c1)O2	-8
Nc1ncnc2c1nc(Br)n2C1O[C@H]2COP(=O)(O)O[C@@H]2C1O (some centres undefined)	-3

Copied from the results shown (5 entries):
SMILES	GLA inh pH 4.5
CC1OC(OCC2OC(Oc3c(-c4ccc(O)c(O)c4)oc4cc(O)cc(O)c4c3=O)C(O)C(O)C2O)[C@@H](O)C(O)C1O (some centres undefined)	-11
COc1ccc(-c2oc3cc(O[C@@H]4OC(CO)C(O)C(O)C4O)c(OC)c(O)c3c(=O)c2OC)cc1O (some centres undefined)	5
COc1ccccc1-c1nc(NCc2ccccc2)c2ccccc2n1	-6
COc1c2c(cc3occ(-c4ccc5c(c4)OCO5)c(=O)c13)OC(C)(C)C=C2	3
NC(N)=NCCCCN=C(N)N	-4&4&-3&7

Other records follow.
SMILES	GLA inh pH 4.5
N[C@H](Cc1cc(I)c(Oc2cc(I)c(O)c(I)c2)c(I)c1)C(=O)O	3
CCCCCCCCCc1ccc(OCCOCCOCCOCCOCCOCCOCCOCCOCCO)cc1	-3
C=CCC(O)(/C=C/c1ccccc1)c1ccccc1 (centres undefined)	0
c1ccc(CNc2ccnc(-c3ccoc3)n2)cc1	0
CCOC(=O)/C=C/CCC/C=C/C(=O)c1ccccc1	-2
COC(=O)C1CC1C(NC(=O)[C@H]1CCCCN1)c1ccccc1 (some centres undefined)	-10
CC(=O)Oc1c(C)cccc1C(=O)O	2
C#C[C@]1(OC(C)=O)CCC2C3CCC4=CC(=O)CCC4C3CC[C@]21C (some centres undefined)	1
CC1CC2OC2/C=C\C=C/C(=O)Cc2c(Cl)c(O)cc(O)c2C(=O)O1 (centres undefined)	4
COC(=O)[C@H]1CC2(CC=C(C)C)C(=O)[C@@](CC=C(C)C)(C(=O)C(C(=O)c3ccccc3)=C2OC)C1(C)C (tested in a mixture with another compound)	-7
CCCCCCN(CCCCCC)C(=O)Cc1c(-c2ccc(Cl)cc2)[nH]c2ccc(Cl)cc12	-11
CCC1=C(OC(=O)N(CC)CC)N2C(=O)OC(=NCCOC)[C@]2(C)[C@H]2C1=CC[C@H]1C(=O)N(C)C(=O)[C@H]12	5
CC(C)C[C@@H](CC(=O)N[C@H](CC(=O)N[C@@H]1CCCC[C@H]1C(=O)N[C@H](CC(=O)N[C@@H](CCC(=O)O)CC(=O)O)Cc1ccccc1)C(C)C)NC(=O)[C@@H]1CNCC[C@H]1N	-5
COc1cc(OC)c2c(=O)c(-c3ccccc3)c(C)oc2c1OC	0
Cc1ccccc1C1CC(=O)Oc2ccc(C(C)(C)C)cc21 (centres undefined)	1
CCN1C(=O)[C@@H]2[C@H](C1=O)[C@@H]1C[C@H]3C(=O)N(CC)C(=O)[C@H]3[C@@H]3C1=C(C(=O)N1C(=O)O/C(=N\CC4CC4)[C@]31C)[C@@H]2C	2
OC[C@@H](O)COc1cccc2ccccc12	1
C[C@@H]1C[C@](C)(C(=O)c2ccco2)C=C1c1ccco1	-4
COc1ccc(-c2coc3c(OC)c(OC)cc(O)c3c2=O)cc1	-5
CNC1CC(N)[C@H](O)[C@@H](O[C@@H]2OC(CO)C3OC4(OC(C(N)CO)C(O)C(O)C4O)O[C@@H]3[C@H]2O)C1O (some centres undefined)	6
COc1ccc2c(c1OC)C(Cc1ccccc1)N1CCc3cc4c(cc3C1=C2)OCO4 (centres undefined)	-13
CN1C(=O)C[C@H](c2ccccc2)C1=O	4
COC(=O)CNC(=O)C1(CC(C)C)C=CCN1C(=O)c1ccccc1 (centres undefined)	-3
CCn1cc(C(=O)O)c(=O)c2cnc(N3CCCC3)nc21	0&5
COC(=O)C1=C(C(=O)OC)[C@@H]2N(C)c3ccccc3[C@@]23C[C@@H](C(=O)OC)N(S(=O)(=O)c2ccc(Br)cc2)C3=N1	-3
CCCCC/C=C\C/C=C\CCCCCCCC(=O)NCCCC(=O)O	-2
COC(=O)C1(C)C=C(Nc2ccc(OC)cc2)C(=O)N1c1ccc(OC)cc1 (centres undefined)	-4
C#C[C@]1(O)CCC2C3CCC4=C(CCC(=O)C4)C3CC[C@@]21C (some centres undefined)	3
C[C@@H]1CCN=C(N)S1	-6
COc1cccc(-c2cc(=O)c3cc(NC(=O)c4cccnc4)ccc3[nH]2)c1	-9
CC(=O)N1C2(C=CC1(C)C(=O)NCc1ccccn1)CCCCC2 (centres undefined)	?
COc1ccc(CCN(C)CCCOc2ccc(S(=O)(=O)c3[nH]c4ccccc4c3C(C)C)cc2)cc1OC	-7
O=C(O)CC[C@H](NC(=O)c1ccccc1C(=O)O)C(=O)O	-1
CSC(=N)N	-1&-6
CC1(OC(=O)c2cnc3ccccc3n2)C(=O)C=C2C=C(c3ccc(C#N)cc3)OC=C2C1=O (centres undefined)	-10&-4
O=c1c(O)c(-c2cccc(O)c2)oc2ccccc12	0
C[C@H]1Cc2c(COc3ccccc3)nc3c(c2CO1)CN(C(=O)C1CCCCC1)CC3	12
CC(C)[C@H](CO)Nc1nc(Nc2cccc(Cl)c2)c2ncn(C(C)C)c2n1	-28
CN(C)C(=O)Nc1ccc(Cl)c(Cl)c1	12
CCN(CC)C(C)CN1c2ccccc2Sc2ccccc21 (centres undefined)	-10
NC(Cc1cc(I)c(Oc2ccc(O)c(I)c2)c(I)c1)C(=O)O (centres undefined)	-10
CN1CCN(C2=Cc3ccccc3Oc3ccc(Cl)cc32)CC1	-17
NC/C=C\C(=O)O	-12&2
CC1(C)Oc2ccc3ccc(=O)oc3c2CC1=O	-2
CC(C)n1nnc2cc(C(=O)O)ccc21	-1
COC(=O)[C@@]1(Cc2ccc(OC)cc2)[C@H]2c3cc(C(=O)N(C)C)n(Cc4ccc(Cl)c(C(F)(F)F)c4)c3C[C@H]2CN1C(=O)c1ccccc1	-7
O=C(O)C1CN(CCCP(=O)(O)O)CCN1 (centres undefined)	0
O=C(O)/C=C(\CC(=O)O)C(=O)O	3
O=C(N[C@@H](c1ccccc1)[C@@H]1C[C@H]1C(=O)NCc1ccccc1)OCc1ccccc1	-6
O=c1c(O)c(-c2ccc(O)cc2)oc2ccc(O)cc12	-13
O=C(/C=C/c1ccccc1)OC1CC(O)C2(O)C=CO[C@@H](OC3OC(CO)C(O)C(O)C3O)C12 (some centres undefined)	17
COc1cc(OC)c2c(c1)OC(=O)CC2c1ccccc1OC (centres undefined)	-4
CN1CCN(C2Cc3ccccc3Sc3ccc(S)cc32)CC1 (centres undefined)	-13
COc1ccc2c(c1)C(=O)[C@H](OC(=O)Nc1cc(OC)c(OC)c(OC)c1)[C@@H](c1ccc(OC)c(Br)c1)O2	-18
COc1ccc(-c2oc3ccccc3c(=O)c2O)cc1	-8
C[N+]1(C)C2CCC1CC(OC(=O)C(O)c1ccccc1)C2 (centres undefined)	6
COC(=O)N1C(/C=C/c2ccc3c(c2)OCO3)=Cc2ccccc2C1CC(C)=O (centres undefined)	5
COC(=O)[C@H](COC(C)(C)C)NC(=O)O[C@@H]1C(=O)c2cc(Br)ccc2O[C@H]1c1ccc2c(c1)OCO2	-3
Nc1nc(Cl)nc2c1ncn2[C@@H]1O[C@H](COP(=O)(O)OP(=O)(O)OP(=O)(O)O)[C@H](O)[C@H]1O	1
COc1ccc(CCCn2ncc3c2nc(N)n2nc(-c4ccco4)nc32)cc1	-8

More entries
SMILES	GLA inh pH 4.5
C[C@@]12CCC3c4ccc(OS(=O)(=O)O)cc4CCC3C1CCC2O (some centres undefined)	-5
C#C[C@@]1(O)CC[C@@H]2[C@@H]3CCC4=CC(=O)CC[C@@H]4[C@H]3CC[C@]21C	1
Cc1cc(-c2ccc(N=Nc3ccc4c(S(=O)(=O)O)cc(S(=O)(=O)O)c(N)c4c3O)c(C)c2)ccc1N=Nc1ccc2c(S(=O)(=O)O)cc(S(=O)(=O)O)c(N)c2c1O	-8
C[C@H](Oc1ccccc1)C(=O)N[C@@H]1C(=O)N2[C@@H]1SC(C)(C)[C@@H]2C(=O)O	-1
c1ccc2sc(N3CCN(Cc4ccc5c(c4)OCO5)CC3)nc2c1	0
CCCCC/C=C\C[C@@H]1O[C@H]1C(O)/C=C\C/C=C\CCCC(=O)O (some centres undefined)	-10
BrC1C(Br)C(Br)C(Br)C(Br)C1Br (centres undefined)	2
COc1ccc(/C=C/c2cc(O)cc(O[C@H]3OC(CO)C(O)C(O)C3O)c2)cc1 (some centres undefined)	2
C=CC1=C2C=C(C3CC3)N(CCOC)C=C2C(=O)C(C)(OC(=O)c2ccco2)C1=O (centres undefined)	5
C/C=C(\C)C(=O)O[C@H]1C[C@@]2(C)CCC(C(C)C)C2(O)CC[C@@]1(C)O (some centres undefined)	4
COc1cccc(CNc2ccc3nc(-c4ccc(N)cc4)c(OC)n3n2)c1	-11
CC(C)Cn1nnnc1S(=O)(=O)CCc1ccccc1	2
CCC1=C2CC[C@H]3C(=O)NC(=O)[C@H]3[C@H]2[C@@]2(C)C(=O)N(CC3CC3)C(=O)N2C1=O	2
O=C(Oc1ccccc1)C1O[C@@H]1c1ccccc1 (some centres undefined)	3
Cc1cccc(COC[C@H](Cc2ccccc2)N2CCN(C(=O)c3cccc(Cl)c3)CCC2=O)c1	-11
COc1cccc([C@@H]2Oc3ccc(Br)cc3C(=O)[C@H]2OC(=O)Nc2ccc(OC(F)F)cc2)c1	1
Cc1ccc(NC(=O)c2cccc(N(C)C)c2)cc1NC(=O)c1ccc(O)cc1	0
COc1cc(NS(C)(=O)=O)ccc1Cc1c2ccccc2nc2ccccc12	-4
Cc1c(C(=O)NN2CCOCC2)nn(-c2ccc(Cl)cc2Cl)c1-c1ccc(I)cc1	-6
COC(=O)[C@@H]1C[C@H]2CC[C@H](O)C[C@H]2N1Cc1ccc(N2CCOCC2)cc1	-1
CC(CCC(=O)O)C1CCC2C3C(O)C[C@@H]4CC(O)CC[C@@]4(C)C3CC(O)[C@]12C (some centres undefined)	1
COC(=O)c1ccc(C(/C=C/[C@@H](C)C(=O)N(C)C)NC(=O)OCc2ccccc2)cc1 (some centres undefined)	-6
Cc1ccc(CNC(=O)[C@H](C)[C@@H]2C[C@@]2(C)[C@@H](NC(=O)OCc2ccccc2)c2ccccc2)o1	-5
C[C@H]1C(c2cccc(Cl)c2)=NN(c2ccccc2)[C@@H]1CO	9

The list is partial, so the mix of outcomes need not match the whole.
